High-throughput results (PubChem BioAssay)
Mtb growth = M. tuberculosis H37Rv growth inhibitors, H37Rv strain (AID 1626); M. tuberculosis H37Rv growth inhibition; higher % means a stronger effect; inhibition, % at 10 µM; hits with a dose series show IC50 in µM; actives 0.95% (n = 220,000);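 active = confirmed in a dose series; inconclusive = inhibition above 80% but not taken into the dose series; inactive = below 80% or under 30% at every dose of the series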;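 note: bacteria incubated seven days before Alamar blue readout; 0% = bacteria only wells and 100% = bacteria with antibiotic wells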
RecA intein inh = Mtb RecA intein splicing inhibitors, primary screen, biochemical, fluorescence, HTS. Protein RecA (Mycobacterium tuberculosis (strain ATCC 25618 / H37Rv)), P9WHJ3. cell-free RecA intein splicing. inhibition, %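 (about 9 µM by stock and volumes)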. actives 0.75% (n = 290,000). AID 2221, 2009; in the data active = inhibition above about 30%; inconclusive = no clear call, values can overlap the other calls;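 note: 0% = vehicle wells and 100% = reference inhibitor control wells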
Target sequence (P9WHJ3 whole entry, looked up): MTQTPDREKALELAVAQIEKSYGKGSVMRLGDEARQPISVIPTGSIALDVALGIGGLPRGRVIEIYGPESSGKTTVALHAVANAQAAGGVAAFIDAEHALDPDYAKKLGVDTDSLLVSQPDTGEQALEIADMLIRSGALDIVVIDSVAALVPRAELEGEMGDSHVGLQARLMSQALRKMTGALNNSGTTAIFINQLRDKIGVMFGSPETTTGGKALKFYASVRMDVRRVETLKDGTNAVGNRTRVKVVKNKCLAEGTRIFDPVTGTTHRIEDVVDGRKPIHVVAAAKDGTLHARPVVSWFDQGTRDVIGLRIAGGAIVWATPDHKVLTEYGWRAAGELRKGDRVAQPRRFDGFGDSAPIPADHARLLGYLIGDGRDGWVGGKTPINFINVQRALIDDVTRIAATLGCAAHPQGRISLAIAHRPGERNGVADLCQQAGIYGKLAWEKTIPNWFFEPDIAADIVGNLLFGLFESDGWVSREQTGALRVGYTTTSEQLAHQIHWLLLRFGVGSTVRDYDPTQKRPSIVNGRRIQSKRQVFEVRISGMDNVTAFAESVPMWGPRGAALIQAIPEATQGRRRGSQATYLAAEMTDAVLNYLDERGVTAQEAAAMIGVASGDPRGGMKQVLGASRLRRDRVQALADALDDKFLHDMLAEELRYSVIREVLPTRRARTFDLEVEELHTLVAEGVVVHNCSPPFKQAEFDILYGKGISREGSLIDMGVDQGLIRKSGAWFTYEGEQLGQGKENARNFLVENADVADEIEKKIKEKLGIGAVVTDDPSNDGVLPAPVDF
Mtb betalactam = beta-lactam sensitization of Mtb H37Rv, H37Rv | M. tuberculosis H37Rv growth with meropenem, percent inhibition; hits of this screen are not shown here | inhibition, % at 25 µM | actives 0.27% (n = 330,000);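 active = about 74% or more and at least 40 points above the plate without the antibiotic, then above 30% in a dose series; inconclusive = first-round hits that could not be retested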;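 note: growth measured after seven days incubation then overnight dye step; 0% = bacteria only wells and 100% = bacteria with antibiotic; twin plates without the antibiotic show which effects depend on it; some results filed as inactive read as strong as hits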
YopH inh = YopH tyrosine phosphatase inhibitors, primary screen, biochemical, fluorescence Ex485/Em525; YopH tyrosine phosphatase [Yersinia enterocolitica]; inhibition, %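 (about 10 µM by stock and volumes)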; actives 0.16% (n = 140,000);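 active = inhibition of 50% or more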;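 note: controls were vehicle for no effect and minimum signal wells for full effect; inactives centre near -20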
Arbovirus inh = antivirals against arbovirus infection, primary screen, cell-based, full library, 10K replicate subset. arbovirus infection cell-based antiviral screen. inhibition, % at 10 µM. actives 0.37% (n = 200,000). AID 1251, 2008;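 active = inhibition from about 30%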;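 note: bluetongue infection of BSR cells; cell survival read as ATP light after 72 h; 0% = infected wells without compound and 100% = uninfected wells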
Arbovirus inh repeat = further read-out of Arbovirus inh, marked with its call; inhibition, %; measured here: 10K subset replicate screen; many hits read low in the repeat;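 first of two repeat runs on a subset; 0% = infected and 100% = uninfected wells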
* marks the source's active call; other numbers are inactive results; ? = inconclusive; . = no result given. Some of the compounds tested; count on the stated rates, not on these rows.

SMILES	Mtb growth	RecA intein inh	Mtb betalactam	YopH inh	Arbovirus inh	others
O=C(COc1ccc2ccc(=O)oc2c1)NCC(O)c1ccccc1 (configuration not stated)	.	-3.5	-1.8	.	.
Cn1c(=O)n(C)c2cc(/C=N/N=C3/NC(=O)C(CC(=O)O)S3)ccc21 (configuration not stated)	0.6%	-3.0	3.1	.	3.5
COc1ccc(C(=O)C2CCCN(C3CSCCSC3)C2)c(C)c1 (configuration not stated)	0.8%	1.9	98.8	.	5.0
Cc1cc(C)cc(-n2c3nc4ccccc4nc3c3c(=O)n(Cc4ccco4)cnc32)c1	5.1%	3.4	-2.5	9.3	2.3
CCn1cc(/C=N/NC(=O)c2ccc3c(c2)OCO3)c(C)n1	6.3%	-2.5	3.8	-32.9	-3.8
Cc1ccc(NC(=O)NC(=O)N(C2CCCCC2)S(=O)(=O)c2ccccc2)cc1	-3.0%	-4.9	-0.5	-30.9	26.9
O=C(Cc1ncc(C(F)(F)F)cc1Cl)NCc1ccco1	7.1%	-3.8	4.9	.	2.7
O=C(/C=C/Nc1cccc([N+](=O)[O-])c1)c1ccco1	-12.6%	0.5	5.0	-18.7	.
COC(=O)C1=C(C(=O)OC)C2C(C)=CC(C)=CN2C(C(=O)OC)=C1C(=O)OC (configuration not stated)	3.5%	-23.5	0.5	-1.7	-6.2
CCC(C(=O)NC1CCCCC1)n1c(SCc2ccccc2F)nc2ccncc21 (configuration not stated)	?	-3.9	2.5	-30.4	-4.7
O=C(/C(=N\O)n1cncn1)c1ccc(Br)cc1Br	.	-1.6	3.8	-36.4	9.5
CCOc1ccc(NC(=O)c2ccc(NC(=S)NC3CC3)cc2)cc1	-3.5%	0.8	-2.6	.	-2.9
CCCCOC(=O)Nc1nc(C)c(C(=O)OCC)s1	79.0%	-0.5	97.6	-2.1	-0.6
COc1ccccc1CNC(=O)CN(C)S(=O)(=O)c1ccc(F)cc1	.	-0.7	-1.0	.	.
CC(C)(C)c1ccc(C(=O)NCc2nnc(SCC(=O)NC3CCCC3)o2)cc1	.	4.5	?	.	.
NC(=O)COC(=O)CCCc1nc2ccccc2s1	-8.1%	0.0	-13.8	-6.2	4.6
CCOc1ccc(N/C(C)=C/C(=O)c2ccc3c(c2)OCCO3)cc1	77.8%	-1.3	98.3	.	.
CC(/C(O)=C(\C#N)c1nc2ccccc2n1C)N1C(=O)c2ccccc2C1=O (configuration not stated)	-4.3%	-1.9	.	-33.2	3.4
O=C(c1cnn(C(=O)COc2ccccc2F)c1)c1cc(F)ccc1O	14.4%	0.9	1.6	.	.
COc1ccc(/C=C(\NC(=O)c2ccccc2)C(=O)OC[C@@H]2CCC[N+]3(C)CCCCC23)cc1OC (some centres not stated)	-4.2%	0.5	-4.3	.	-2.6
CC(C)(C)OC(=O)NCc1ccc(CNC(=O)c2[nH]cnc2C(=O)NCC(=O)OCc2ccccc2)cc1	.	-0.4	3.5	.	.
Cc1csc(Nc2nc(N)c(C(=O)Nc3cc(Cl)ccc3F)o2)n1	.	3.2	-6.6	.	.
CCN(CC)CCN(Cc1cc2cc(C)c(C)cc2[nH]c1=O)C(=S)NCc1ccco1	-1.8%	3.3	-1.6	.	-20.2
CCC(=O)Nc1nnc(SCC(=O)Nc2cccc(Cl)c2)s1	.	-0.5	-8.2	.	.
CC(C)(C)c1ccc(-n2ncc3c2CCCC3NC(=O)C2(C(N)=O)CC2)cc1 (configuration not stated)	.	2.1	4.0	.	.

More structures follow.
SMILES	Mtb growth	RecA intein inh	Mtb betalactam	YopH inh	Arbovirus inh	others
O=C(NCCN1CCN(c2ccccc2)CC1)c1cccc(Cl)c1	.	1.3	6.3	.	.
COc1ccc(CCNC(=O)CCCN2C(=O)c3ccccc3C2=O)cc1	2.7%	-1.3	0.6	.	2.8
COc1cc(C(=O)NC2CCN(CC(=O)NC3CCCCC3)CC2)cc(OC)c1OC	.	0.0	-1.7	.	.
O=C1CCN(Cc2ccccc2)N1	.	-5.1	4.8	.	.
CCCCCN(C(=O)CCC(=O)OCC(=O)N(CC#N)c1ccccc1)c1c(N)n(CCCC)c(=O)[nH]c1=O	.	-7.4	-8.7	.	.
CC(=O)Nc1ccc(C2=NN(CC#N)C(=O)SC2)cc1	-10.0%	-7.9	2.8	-50.7	-1.2
CCOC(=O)c1nnsc1-c1ccc(-c2snnc2C(=O)OCC)cc1	-5.3%	-1.7	-2.0	.	.
COc1ccc(NC(=O)C2CCN(S(=O)(=O)c3c(C)noc3C)CC2)cc1Cl	-3.2%	-2.6	9.8	-26.5	1.3
CN(C(=O)CNC(=O)c1ccc(Br)o1)C1CCCCC1	.	0.0	-12.5	.	.
CCc1ccc(C2CC(=O)NC(SCC(=O)OC(C)C)=C2C#N)cc1 (configuration not stated)	-13.1%	3.1	-4.0	-15.9	-8.0	Arbovirus inh repeat=-5.9
Cc1cccc(C)c1OCC(=O)Nc1cccc(S(=O)(=O)N2CCCC2)c1	.	6.8	-4.1	.	.
CCCc1nn2c(=O)cc(CSCC(=O)Nc3ccc(F)cc3)nc2s1	.	-0.6	-10.2	.	.
CC(=O)Nc1ccc(N2C(=O)CC(Sc3nccc(C)n3)C2=O)cc1 (configuration not stated)	.	-1.1	-4.9	.	.
Cc1ccc(C)n1CCN1CCN(C(=O)c2ccco2)CC1	-4.1%	-3.6	8.4	-20.8	4.8
CCOC(=O)c1nnn(CC(=O)Nc2ccccc2OC)c1C(=O)OCC	-15.2%	3.3	-2.2	-4.1	7.7
O=S(=O)(c1cccc(-c2nnc3n2CCCCC3)c1)N1CCCC1	-1.2%	-2.0	-8.8	.	19.6
O=C(C[n+]1cccc(O)c1)NCc1ccc(Cl)cc1	.	-2.2	3.9	.	.
CCOC(=O)N1CCN(C(=O)c2cc(C)no2)CC1	.	5.8	-2.6	-52.3	7.0	Arbovirus inh repeat=-0.1
CCOC(=O)Nc1ccc(S(=O)(=O)NC2CCCCC2)cc1	6.5%	1.1	-6.6	.	1.7
CSc1cc(-c2ccccc2)n(Cc2ccccc2Cl)c(=O)c1C#N	3.1%	-2.8	1.5	4.7	-7.1
CC(=O)c1ccc(NC(=O)c2ccc(NC(=O)c3ccco3)cc2)cc1	.	0.8	1.8	.	.
CC(=O)c1cccc(NC(=O)Nc2cccs2)c1	-3.1%	0.5	-11.5	-51.0	6.3
Oc1ccc(-c2cccc(-c3ccc(O)cc3)c2)cc1	.	19.7	2.9	.	.
Clc1cccc(-c2csc(Nc3cccnc3)n2)c1	-3.0%	-2.2	-2.1	.	.
O=C(NCC1CCCO1)c1cccc(NS(=O)(=O)c2ccc(Br)cc2)c1 (configuration not stated)	.	0.0	-5.1	.	.

Sorted by molecular weight (ascending): 3 of the compounds above
SMILES	Mtb growth	RecA intein inh	Mtb betalactam	YopH inh	Arbovirus inh	others
Oc1ccc(-c2cccc(-c3ccc(O)cc3)c2)cc1	.	19.7	2.9	.	.
CN(C(=O)CNC(=O)c1ccc(Br)o1)C1CCCCC1	.	0.0	-12.5	.	.
CCOc1ccc(NC(=O)c2ccc(NC(=S)NC3CC3)cc2)cc1	-3.5%	0.8	-2.6	.	-2.9

Later entries:
SMILES	Mtb growth	RecA intein inh	Mtb betalactam	YopH inh	Arbovirus inh	others
CCC(Oc1ccccc1)C(=O)Nc1nc2c(s1)C(=O)CC(C)(C)C2 (configuration not stated)	2.3%	0.1	0.2	17.5	-8.1
CC(=O)N1CCN(c2cccc(C)c2C)CC1	-0.9%	-3.1	?	-54.3	-2.0
COc1ccc(OC(C)C(=O)N2CCc3ccccc3C2)cc1 (configuration not stated)	2.5%	-2.2	-2.6	-16.9	-5.8
COc1ccc(-c2nc(-c3ccc(O)cc3O)cs2)cc1OC	8.0%	15.9	.	.	-29.7
CCOC(=O)c1c(C)noc1-c1ccc(Br)o1	-13.7%	1.0	0.3	.	.
COc1ccc(Cl)cc1NC(=S)Nc1ccccc1C	0.2%	-0.9	-2.3	.	-2.3
CCOc1ccc(N(CC(=O)NCc2ccccc2Cl)S(=O)(=O)c2c(C)[nH]c(=O)[nH]c2=O)cc1	.	2.7	-7.3	.	.
CN1CCN(S(=O)(=O)c2ccc(NC(=O)COc3ccccc3Cl)cc2)CC1	-1.3%	-1.8	-7.2	.	3.0
COC(CN(C)C(=O)c1ccc(CS(=O)(=O)c2ccccc2C)o1)OC	.	-1.4	3.0	.	.
CC1CN(C(=O)CCC(=O)NCc2ccccc2)c2cc(Cl)ccc2O1 (configuration not stated)	.	-0.3	-4.3	.	.
O=C(COc1ccc(S(=O)(=O)N2CCCCC2)cc1)NCc1ccccn1	6.7%	-0.6	3.2	.	-0.7
COc1ccc(OC)c(C2=Nn3c(nnc3-c3cc(C)[nH]n3)SC2)c1	-0.8%	2.3	34.6	.	.
Cc1cc(NC(=O)Cn2cc(C(F)(F)F)cc(Cl)c2=O)no1	1.6%	-1.0	-3.0	-13.6	3.1
CN(C)CCOC(=O)NC12CC3CC(CC(C3)C1)C2	-2.1%	1.7	-2.2	.	.
Cc1ccsc1C(=O)NNC(=O)Nc1ccc(Cl)c(Cl)c1	-2.5%	-0.1	1.1	-33.4	1.5
CC(C)(C)NC(=O)Cn1c(=O)c(=O)n(Cc2ccccc2)c2ccc(Cl)cc21	2.7%	2.9	3.7	-14.9	5.5
CCOC(=O)c1cc(C)nn1-c1nc(Cl)cc(OC)n1	1.1%	-1.7	-0.4	-13.0	-1.0
CCN(Cc1ccccc1)C(=O)Cn1c(=O)n(-c2ccc(OC)cc2OC)c(=O)c2c(C)c(C)sc21	-2.9%	0.4	-7.2	.	12.6
Cc1ccc(S(=O)(=O)N(C)c2ccc(OCC(=O)OCC(=O)N(CC#N)c3ccccc3)cc2)cc1	.	2.4	0.5	.	.
CC1(C)CC(=O)C(C=Nc2cccnc2/N=C/C2=C(O)CC(C)(C)CC2=O)=C(O)C1	-1.4%	-1.1	-4.7	.	-6.0
CCN(CC)CCCNC(=S)N1CCN(c2nc(-c3ccccc3)cs2)CC1	.	-2.3	-4.2	.	.
Cc1ccc(C)c(C(=O)CN2C(=O)NC3(CCC(C)CC3)C2=O)c1 (configuration not stated)	8.0%	0.0	0.0	-30.9	1.1
Cc1ccc(C(=O)NNC(=O)CCn2nnc3ccccc32)cc1	-3.5%	.	0.8	.	-7.0
Cc1nn(C)c(C)c1S(=O)(=O)N1CCCC(C(=O)NC2CCCCCC2)C1 (configuration not stated)	-9.9%	-1.2	2.1	-33.4	-1.6
CC(C)(C)c1[nH]nc2c1C(c1ccccc1OC(=O)N1CCOCC1)C(C#N)=C(N)O2 (configuration not stated)	-10.5%	.	0.9	-20.9	1.1

The list goes on, overlapping the part above by 2 compounds.
SMILES	Mtb growth	RecA intein inh	Mtb betalactam	YopH inh	Arbovirus inh	others
Cc1nn(C)c(C)c1S(=O)(=O)N1CCCC(C(=O)NC2CCCCCC2)C1 (configuration not stated)	-9.9%	-1.2	2.1	-33.4	-1.6
CC(C)(C)c1[nH]nc2c1C(c1ccccc1OC(=O)N1CCOCC1)C(C#N)=C(N)O2 (configuration not stated)	-10.5%	.	0.9	-20.9	1.1
Cc1c(NC(=S)NC(=O)c2ccco2)cccc1-c1nc2ncccc2o1	6.6%	-0.6	6.8	.	2.1
CCCCNC(=O)CCCN1C(=O)c2cccnc2Sc2ccccc21	.	-1.0	6.5	.	.
COc1cc(/C=N/NC(=O)c2ccc(C)nc2)cc([N+](=O)[O-])c1O	8.3%	-0.9	10.4	.	-3.7
Cc1cc(S(=O)(=O)Nc2cccnc2)c(C)s1	-5.5%	-2.9	-1.5	-10.9	-4.1
COC(=O)N/N=C(\C)c1ccc(OC(F)F)cc1	-5.0%	0.4	0.7	.	3.3
CCCNC(=S)N1CCCC(c2nc3ccccc3[nH]2)C1 (configuration not stated)	0.7%	0.2	-0.7	.	-10.2
CCSc1nnc(NC(=O)c2cccc(OCc3c(C)noc3C)c2)s1	-5.0%	4.3	8.7	-11.3	-4.5	Arbovirus inh repeat=-3.5
N=C1/C(=C/c2cccn2CCOc2ccccc2)C(=O)N=C2SC=C(c3ccccc3)N12	-6.0%	1.0	4.9	-12.1	-13.5
COc1ccc(CCN2C(=O)c3cccc4c(C(=O)N5CCCCC5)ccc(c34)C2=O)cc1OC	-6.4%	4.2	3.0	8.4	-2.7
CN(C)c1ccc(N=Cc2c(O)n(CCC3=CCCCC3)c(=O)[nH]c2=O)cc1	6.6%	-2.7	-5.2	-56.6	-5.3
CCCC(C)NC(=O)c1ccc(C2SCC(=O)N2Cc2ccco2)cc1 (configuration not stated)	-5.6%	2.3	-18.2	-18.6	-10.4
CC1CCN(C(=O)/C(=C\c2cccs2)NC(=O)c2ccccc2)CC1	-2.6%	-4.0	-3.7	.	8.8
